VDR inhibitor – inhibitors of human vitamin D receptor; P11473; VDR-SRC2-3 peptide fluorescence polarization, 2 h; Potency, µM, inactives show max response, negative = inhibition, hits mostly inhibitors; hit rate 0.93% among 400,000; active = well fitted inhibition curve with a large enough effect; inconclusive = small, poorly fitted or top-dose-only effect, or another doubt; inactive = no such curve, though single readings can be large or run the other way; also: series mostly up to about 120 µM
Target sequence (P11473 whole entry, looked up): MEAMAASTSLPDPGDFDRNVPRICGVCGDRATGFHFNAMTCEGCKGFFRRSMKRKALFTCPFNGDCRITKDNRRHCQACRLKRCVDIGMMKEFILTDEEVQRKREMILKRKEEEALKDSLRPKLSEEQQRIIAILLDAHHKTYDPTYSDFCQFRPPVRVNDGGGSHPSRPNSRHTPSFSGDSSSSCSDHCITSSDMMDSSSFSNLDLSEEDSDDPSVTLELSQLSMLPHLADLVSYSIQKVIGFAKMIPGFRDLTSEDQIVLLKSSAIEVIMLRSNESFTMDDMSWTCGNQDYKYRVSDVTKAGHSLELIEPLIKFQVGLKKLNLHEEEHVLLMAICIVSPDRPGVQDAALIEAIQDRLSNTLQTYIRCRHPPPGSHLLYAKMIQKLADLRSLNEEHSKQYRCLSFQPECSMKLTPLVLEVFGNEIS
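Fluorescence polarization assay of small-molecule disruption of VDR binding to coregulator peptide SRC2-3. Compounds and controls pin-transferred, then read after 2 h incubation at ambient room temperature.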
Active calls of the source: *; u = inconclusive; & = joins results of further samples. % is scaled to controls: 0 for no effect and ±100 for the full control effect; potency is read from the fitted curve at half-maximal effect. Only part of the results is shown. The share of hits here may be higher or lower than overall.

VDR inhibitor	SMILES
22%	Cn1nc(C(=O)OCC(=O)Nc2cc(Cl)ccc2C#N)c2ccccc2c1=O
1%	O=S1(=O)CCC(NC2CCCC2)C1 (configuration not stated)
-11%	CS(=O)(=O)Nc1ccc2[nH]c(=O)[nH]c2c1
-21%	CCOC(=O)C(C(=O)c1ccccc1)C1CC(C)NC(=S)N1 (configuration not stated)
-14%	O=C(O)c1ccc(-c2nnn(Cc3cccc(C(F)(F)F)c3)n2)cc1
-17%	CCCNC(=O)CN1CCN(S(=O)(=O)c2ccc(Br)s2)CC1
-17%	CCOCCCNC(=O)Cn1cnc2c(cnn2-c2ccc(F)cc2)c1=O
2%	CC(C)C[C@@H](CO)NS(=O)(=O)c1cc(Cl)ccc1F
5%	COc1cccc(Cn2c(=O)n(CCc3ccccc3)c(=O)c3c2c2cc(OC)ccc2n3C)c1
-9%	O=C(N/N=C/c1cccnc1)C(O)(c1ccccc1)c1ccccc1
-16%	O=C(O)c1ccccc1CC(CCc1ccccc1)C(=O)O (configuration not stated)
16%	CCCN1CCC(N2CCN(c3cccc(C(F)(F)F)c3)CC2)CC1
-3%	CC(NC(=O)c1ccccc1NS(C)(=O)=O)c1ccccc1 (configuration not stated)
-7%	O=S(=O)(c1ccccc1)N1N=C(c2ccc(O)cc2)CC1c1ccco1 (configuration not stated)
-8%	Cc1ccc(Cc2ccccc2C(=O)O)cc1
0%	Cc1cccc(NS(=O)(=O)c2ccc(C(=O)NCC(c3ccco3)N(C)C)cc2)c1C (configuration not stated)
9%	Cc1ccc(CCSCC(=O)O)cn1
6%	N#Cc1ccc(N2CCc3ccccc3C2)c([N+](=O)[O-])c1
5%	S=c1[nH]ncn1/N=C/c1ccccc1
5%	Cc1cc(C)c2oc(C(=O)Nc3ccc(S(=O)(=O)N4CCCCCC4)cc3)cc(=O)c2c1
-10%	CC1=CC(C)(C)Nc2ccc(OC(=O)c3ccco3)cc21
-21%	CCSc1nc2sc3c(c2c(=O)[nH]1)CCc1ccccc1-3
10%	CNc1oc(-c2ccc(C)cc2)nc1P(=O)(c1ccccc1)c1ccccc1
-2%	NC(C(=O)O)c1ccc(O)cc1 (configuration not stated)
-1%	CCOC(=O)[C@H]1[C@H]2COc3cc(OC)ccc3[C@@H]2N2C(=O)N(c3ccc(Br)cc3)C(=O)[C@@]12C
3%	Cc1cc2c(cc1NS(=O)(=O)c1ccc(NC(=O)CC(C)C)cc1)n(C)c(=O)c(=O)n2C
9%	O=[N+]([O-])c1ccc(N/N=C/c2ccccc2)c(F)c1
-5%	O=C(COc1ccc(Cl)cc1)OCC(=O)N1CCCCCC1
13%	Cc1cccc(NC(=O)CCn2nc(C)cc2C)c1
0%	Cc1c(NS(=O)(=O)c2cccc(C(=O)Nc3cccc(F)c3)c2)c(=O)n(-c2ccccc2)n1C

6 entries out of the list above, ordered by their value in VDR inhibitor, lowest first.
| SMILES | VDR inhibitor |
| --- | --- |
| CCOCCCNC(=O)Cn1cnc2c(cnn2-c2ccc(F)cc2)c1=O | -17% |
| O=C(O)c1ccccc1CC(CCc1ccccc1)C(=O)O (configuration not stated) | -16% |
| Cc1cc(C)c2oc(C(=O)Nc3ccc(S(=O)(=O)N4CCCCCC4)cc3)cc(=O)c2c1 | 5% |
| CNc1oc(-c2ccc(C)cc2)nc1P(=O)(c1ccccc1)c1ccccc1 | 10% |
| Cc1cccc(NC(=O)CCn2nc(C)cc2C)c1 | 13% |
| Cn1nc(C(=O)OCC(=O)Nc2cc(Cl)ccc2C#N)c2ccccc2c1=O | 22% |

Compounds above with an NH in an aromatic ring (3):
VDR inhibitor	SMILES
-11%	CS(=O)(=O)Nc1ccc2[nH]c(=O)[nH]c2c1
5%	S=c1[nH]ncn1/N=C/c1ccccc1
-21%	CCSc1nc2sc3c(c2c(=O)[nH]1)CCc1ccccc1-3

The list goes on:
VDR inhibitor	SMILES
4%	CCC(C)Oc1ccc(C(=O)Nc2ccc(CN3CCOCC3)cc2)cc1 (configuration not stated)
3%&-29%	COc1ccc(CNC(=O)c2nnn(CC(=O)Nc3cc(C)cc(C)c3)c2N)cc1
-19%	COc1cccc(N2CC(C(=O)Nc3c(C(N)=O)oc4ccccc34)CC2=O)c1 (configuration not stated)
0%	Cc1ccc(OCC(=O)Nc2ccc3nc(SCC(=O)Nc4ccc(C)cc4C)sc3c2)cc1
-12%	Cc1ccc(-c2c(C(=O)NC(C)C)oc(=O)c3ccccc23)cc1
-10%	COc1ccc(N(CC(O)Cn2c(C)nc3ccccc32)S(=O)(=O)c2ccccc2)cc1 (configuration not stated)
-28%	Cc1cc(NC(=O)CCC(=O)N(c2ccccc2)C(C(=O)NC2CCCC2)c2cccs2)no1 (configuration not stated)
6%	CO/N=C(/c1nonc1N)N1CCN(c2ccc([N+](=O)[O-])cc2)CC1
-5%	Cc1ccc(C(=O)OCC(=O)NCCC2=CCCCC2)cc1N
-20%	O=C(Cc1cccs1)NNC(=O)c1ccc(F)cc1
-1%	COc1cc(-c2nnc(SCC(=O)OC3CCCCC3)o2)cc(OC)c1OC
-5%	CCC1CCCCN1C(=O)CCC(=O)Nc1nnc(C(F)(F)F)s1 (configuration not stated)
13%	CC(NC(=S)NCc1ccc(F)cc1)C12CC3CC(CC(C3)C1)C2 (configuration not stated)
6%	CC1=C(C#N)C(=O)N(C)C(C)(C)C1
7%	Cc1cc(F)ccc1NC(=O)C(c1ccccc1)N1Cc2ccccc2C1=O (configuration not stated)
-20%	Cc1ccc(N2C(=O)C3C4C=CC(CNC(=S)N5CCN(c6ccccc6)CC5)(O4)C3C2=O)cc1 (configuration not stated)
22%	COc1ccc(N2CCN(Cc3cc(=O)oc4ccc(OC)cc34)CC2)cc1
2%	CN(C)C1=NCCN1CCC1CCCCC1
-3%	CC(=O)C1CCC2C3CCC4CC(=O)CCC4(C)C3C=CC12C (configuration not stated)
-2%	CSC1=NC2C(N1)N(C)C(=O)N2C (configuration not stated)
13%	O=C(Nc1cccc(S(=O)(=O)NC2=NCCC2)c1)c1c(F)cccc1Cl
17%	O=C(COc1ccccc1F)Nc1ccc2nc(SCC(=O)N3CCCC3)sc2c1
-4%	CCn1c(CC(=O)Nc2ccc(OC)cc2)nnc1SCC(=O)N1CCOCC1
-19%	O=C(NNC(=O)c1c(F)cccc1F)c1ccccc1OC(F)(F)F
-15%	CN1CCN(C(=S)Nc2ccc(Cl)cc2Cl)CC1
-8%	COc1ccc(CCC(=O)NCCS(=O)(=O)N2CCN(c3ccccc3)CC2)cc1
-1%	COc1cc(C(=O)NC(C)c2ccc(S(N)(=O)=O)cc2)ccc1OCC(=O)N1CCOCC1 (configuration not stated)
u	CCCc1ccccc1OCCNC(C)=O
5%	CCn1c(SCC(=O)N2CCN(c3ccccc3)CC2)nnc1-c1cc2cc(Cl)ccc2o1
-1%	Cc1noc(NS(=O)(=O)c2ccc(NC(=O)c3cc(=O)c4ccccc4o3)cc2)c1C

Random excerpt: three records from the list
VDR inhibitor	SMILES
5%	CCn1c(SCC(=O)N2CCN(c3ccccc3)CC2)nnc1-c1cc2cc(Cl)ccc2o1
0%	Cc1ccc(OCC(=O)Nc2ccc3nc(SCC(=O)Nc4ccc(C)cc4C)sc3c2)cc1
13%	O=C(Nc1cccc(S(=O)(=O)NC2=NCCC2)c1)c1c(F)cccc1Cl

Other structures.
VDR inhibitor	SMILES
-2%	Cn1c(SCC(N)=O)nnc1-c1ccc(C(C)(C)C)cc1
9%	CCOCCN1CCN(c2c(CC)c(C)nc3cc(-c4cc(OC)cc(OC)c4)nn23)CC1
7%	CSc1nc(NS(=O)(=O)c2ccc(F)cc2F)nn1C
2%	CCCCCCc1ccc(N2C[C@H](Cc3ccccc3)[C@@H](CC(=O)NCc3ccc(OC)cc3)C2=O)cc1
-15%	CC1=C(C)NC(=S)SC1
-4%	CC(=O)N1CCc2c(sc3c2c(=O)n(Cc2ccccc2)c(=O)n3Cc2cc(C)ccc2C)C1
-4%	Cc1ccc(S(=O)(=O)Nc2cccc(-c3cn4cccc(C)c4n3)c2)c(C)c1
-8%	COC(=O)C1CCN(C(=O)COC(=O)[C@@H]2CC(O)CN2S(=O)(=O)c2ccc3c(c2)OCCO3)CC1 (some centres not stated)
-6%	CN(CC(=O)Nc1cccc(F)c1)C(=O)c1ccc2c(=O)n3c(nc2c1)CCC3
-13%	CC(C)[C@H](NC(=O)c1ccco1)C(=O)NC12CC3CC(CC(C3)C1)C2
7%	COc1ccccc1-c1nnc(SC(C(=O)c2c[nH]c3ccccc23)c2ccccc2)n1C (configuration not stated)
15%	O=C(NCCC1=CCCCC1)C1CCC(CNc2c(N3CCCCC3)c(=O)c2=O)CC1 (configuration not stated)
7%	CC1/C(=N/O)CC(c2ccco2)NC1c1ccco1 (configuration not stated)
-4%	Clc1ccc(N=C2SCCS2)cc1
-3%	O=C(NCc1ccncc1)C1CCCN(S(=O)(=O)c2ccc(Br)cc2)C1 (configuration not stated)
-1%	COC(=O)c1ccc(NC(=O)CNc2ccccc2)cc1
-16%	O=S(=O)(Nc1nc2ccccc2nc1Cl)c1ccc2c(c1)OCCO2
-5%	CCCN1C2CCCC1CC(NC(=S)Nc1ccc(OC)cc1)C2 (configuration not stated)
4%	CCC(CC)NC(=O)c1cc(S(=O)(=O)N2CCCCC2)ccc1N1CCOCC1
4%	CCOC(=O)c1ccccc1NS(=O)(=O)c1ccc(OC)cc1
3%	O=C1CC(c2ccco2)=Nc2ccccc2N1
4%	Cc1ccccc1S(=O)Cc1ccc(C(=O)NCCN2CCOCC2)o1 (configuration not stated)
-12%	COc1cccc(CNC(=O)C(NS(=O)(=O)c2cccs2)C(C)C)c1 (configuration not stated)
4%	CCOc1ccc(C(=O)Nc2cccc(C(=O)O)c2C)cc1Cl
-3%	CCOc1ccc(C(=O)c2cc([N+](=O)[O-])ccc2Cl)cc1
-11%	COc1ccc(C(=O)Oc2ccc(/C=N/NC(=O)c3cccnc3)cc2OC)cc1
10%	CC(C)N1CCC(N2CCN(CCCn3cccn3)CC2CCO)CC1 (configuration not stated)
16%	NC(=O)Cn1nc(-c2ccccc2)nc1-c1ccccc1
28%	CCC(=O)Oc1ccc2c(C)cc(=O)oc2c1C(=O)CC
-1%	CCC(=O)N1CCc2cc(Br)cc(S(=O)(=O)CCC(=O)NCCc3ccc(C)cc3)c21

(more compounds)
VDR inhibitor	SMILES
0%	CC(C)Nc1ncnc2c1cnn2-c1ccccc1
-6%	COc1ccc(CS(=O)c2nc(C)cc(C)c2S(C)(=O)=O)cc1 (configuration not stated)
12%	CCOC(=O)c1ccc(CNC(=O)Cn2nnc(-c3ccccc3)n2)o1
6%	CCN(C[C@H]1N[C@@](Cc2ccccc2)(C(=O)OC)[C@H]2C(=O)N(C)C(=O)[C@@H]12)C(=O)Nc1ccc(F)cc1
-8%	COc1cc2cccc(OC)c(=O)c2c(OC)c1OC
-13%	O=C1Nc2ccccc2C1Cc1ccccc1 (configuration not stated)
-1%	Cc1c(C(=O)Nc2ccc(C(=O)O)cc2)nnn1-c1ccccc1
-12%	CCOc1ccc(NCc2cccn2-c2nnc(N3CCC(C(=O)NCc4ccc(C)cc4)CC3)s2)cc1
-22%	O=c1oc(-c2cccc(S(=O)(=O)N3CCOCC3)c2)nc2ccccc12
-4%	CNC(C)C#Cc1ccc2c(=O)c3ccccc3oc2c1 (configuration not stated)
7%	O=C(O)c1ccc(C(=O)c2ccc3c(c2)C(=O)N(Cc2ccco2)C3=O)cc1
1%	O=C(NC(=S)Nc1ccc(N2CCOCC2)cc1)c1ccc(Cl)cc1
-2%	Cc1nc2scc(C)n2c(=O)c1S(=O)(=O)NCC1CCN(Cc2ccc(F)cc2)CC1
3%	CC(=O)c1ccc(NC(c2ccc(F)cc2)c2nnc(-c3ccccc3)o2)cc1 (configuration not stated)
-13%	CC1=C(O)C(=O)OC1c1c(Cl)cccc1Cl (configuration not stated)
-2%	COc1cccc(C2C(C(=O)Nc3cccnc3)=C(C)Nc3nnnn32)c1OC (configuration not stated)
-13%	COc1ccccc1N1CCN(C2CCCN(C(=O)c3cc(C)oc3C)C2)CC1 (configuration not stated)
-8%	O=S(=O)(c1ccc(Cl)cc1)c1nc(-c2cccs2)oc1SCc1ccccc1F
6%	CC(=O)c1ccc(NC(=O)CSc2ccc3nc(-c4ccccc4)cn3n2)cc1
1%	COc1ccccc1C/C(N)=N/OC(=O)COc1ccc(C)cc1C
-14%	CC(=O)N1CCN(C(=O)c2ccc(S(=O)(=O)Nc3cccc(C(F)(F)F)c3)cc2)CC1
4%	CC(=O)c1cccc(NC(=O)CN2C(=O)C3C4C=CC(C4)C3C2=O)c1 (configuration not stated)
0%	O=S(=O)(NCCc1ccccc1F)c1cccc(S(=O)(=O)N2CCOCC2)c1
-28%	CCn1c(CNC(=O)c2ccccc2Cl)cc2ccccc21
-14%	O=C(Nc1ccc(F)cc1)c1cccc(N2C(=O)C3C4C=CC(C5CC45)C3C2=O)c1 (configuration not stated)
-14%	COc1ccccc1C(=O)NC(=O)COC(=O)C1CC1C (configuration not stated)
-20%	O=C(CCCn1c(=S)[nH]c2cc3c(cc2c1=O)OCO3)N1CCN(c2ncccn2)CC1
6%	N/C(Cc1ccc(Cl)cc1Cl)=N\OC(=O)c1ccccc1
19%	C=CCn1c(=O)n(C(=O)OCC)c2cc(Br)ccc21

As entered above:
COc1ccc(CS(=O)c2nc(C)cc(C)c2S(C)(=O)=O)cc1 (configuration not stated) in VDR inhibitor is listed with -6%
O=[N+]([O-])c1ccc(N/N=C/c2ccccc2)c(F)c1 in VDR inhibitor is listed with 9%
COc1cccc(Cn2c(=O)n(CCc3ccccc3)c(=O)c3c2c2cc(OC)ccc2n3C)c1 in VDR inhibitor is listed with 5%
